Compound activity from PubChem BioAssay.
RGS4 inhibitor: blocks human RGS4-accelerated GTP hydrolysis. 390,000 tested, 0.039% active. Transcreener GDP fluorescence polarization, RGS4-accelerated GTP hydrolysis. Potency, µM (top dose mostly 114 µM), without a hit: at the top dose activity change, negative = inhibition, usual class: inhibitors. P49798. AID 504845; further: potency means the concentration at half of the fitted maximal effect; on the % scale 0 is the no-effect control and ±100 the full control effect; nearly all actives have a fitted effect of over 75% in size; some results filed as inactive show a strong effect at the top dose
Target sequence (P49798 whole entry, looked up): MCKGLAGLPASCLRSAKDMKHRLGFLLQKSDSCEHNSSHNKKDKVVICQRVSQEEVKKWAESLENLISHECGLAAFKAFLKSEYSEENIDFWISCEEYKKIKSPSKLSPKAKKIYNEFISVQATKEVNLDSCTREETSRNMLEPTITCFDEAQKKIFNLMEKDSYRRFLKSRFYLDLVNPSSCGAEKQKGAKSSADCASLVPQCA
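MLSMR compounds (23 nl, pin-transferred) preincubated 10 min at room temperature with a 500nM (2x) first reagent, then RGS4 at 900nM (2x) plus Transcreener GDP mix added; fluorescence polarization (620/688 nm) read before and after 90 min at 30 °C.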
PI4K2A block: PI4K2A (human) kinase inhibition | 420,000 tested, 0.13% active | activity change, negative = inhibition, % at 76.9 µM | purified PI4K2A, ADP-Glo luminescence, 1 h; stronger effect = lower value; in the data active means activity change below about -50%; inconclusive means mostly about -30% to -49%;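 further: -100% = wells without enzyme as full effect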
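In this quantitative HTS, ADP production by PI4K2A was quantified luminescently after 1 h at ambient temperature; 100 microM adenosine served as plate-quality control.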
GLS inh: inhibitors of human glutaminase (GLS). Potency, µM (top dose mostly 45.5 µM), without a hit: top-dose activity change, negative = inhibition, most hits filed as inhibitors. AID 624170. O94925. GLS enzymatic activity, qHTS titration. 410,000 tested, 0.21% active; further: potency means the concentration at half of the fitted maximal effect; on the % scale 0 is the no-effect control and ±100 the full control effect
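hKGA in 45 mM KH2PO4 (pH 8.2), 0.02% Tween-20 with compound, then 1mM L-Glutamine (stock as added) plus glutamate oxidase/HRP/Amplex red coupling mix. Fluorescence read initially and after 30 min at RT; signal change reflects glutamate formation.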
12-LOX inh: ALOX12 (human) lipoxygenase inhibition. P18054. purified 12hLO, xylenol orange hydroperoxide absorbance. Potency, µM (highest dose often 108 µM), for the others: top-dose activity change, negative = inhibition, hits mostly inhibitors. 580,000 tested, 1.1% active. AID 1671190; further: potency means the concentration at half of the fitted maximal effect; on the % scale 0 is the no-effect control and ±100 the full control effect
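Purified human 12hLO at 150 nM in 25 mM Hepes, 0.01% Triton X-100, pH 7.0, preincubated 15 min at room temperature with compound. Reaction started with 40 uM arachidonic acid, 30 min at room temperature. Hydroperoxide measured by Fe-xylenol orange, 573/405 nm absorbance ratio.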
ERG-DNA inh: inhibitors of human ERG Ets domain-DNA interaction; P11308; fluorescence polarization, His-ERG Ets domain / labelled DNA; Potency, µM (series often up to 76.9 µM), for the others: at the highest dose FP activity, negative = inhibition, actives largely listed as inhibitors; 370,000 tested, 0.028% active; active means well fitted inhibition curve with a large enough effect in the polarisation, with a control signal flat; inconclusive means small, poorly fitted or top-dose-only effect, or effect the other way, or a change in a side signal; inactive means no such curve, though single readings can be large or run the other way; the % refers to the polarisation;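 further: polarization taken with two DNA probes labelled with fluorescein and Texas red; potency means the concentration at half of the fitted maximal effect; % of control where 0% means no effect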
Target sequence (P11308 whole entry, looked up, the tested form may be a part): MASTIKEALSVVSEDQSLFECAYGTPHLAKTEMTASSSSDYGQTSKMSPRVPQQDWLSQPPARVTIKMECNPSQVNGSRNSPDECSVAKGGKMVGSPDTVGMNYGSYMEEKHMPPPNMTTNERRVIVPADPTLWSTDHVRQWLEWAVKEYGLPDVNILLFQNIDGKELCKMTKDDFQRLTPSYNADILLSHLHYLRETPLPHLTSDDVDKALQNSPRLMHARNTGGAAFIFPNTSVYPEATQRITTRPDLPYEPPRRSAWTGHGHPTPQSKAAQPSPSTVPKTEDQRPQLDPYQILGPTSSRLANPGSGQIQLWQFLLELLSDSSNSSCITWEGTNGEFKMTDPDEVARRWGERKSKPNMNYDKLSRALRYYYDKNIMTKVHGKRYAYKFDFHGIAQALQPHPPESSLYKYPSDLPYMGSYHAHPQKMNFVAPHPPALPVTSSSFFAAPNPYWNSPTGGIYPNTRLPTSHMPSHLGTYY
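His-tagged ERG Ets domain (1 uM in the protein solution; 300mM KCl, 50mM Tris-HCl, 1mM EDTA, 1mM DTT, pH 7.5) received compound, then a probe mix of 5 nM fluorescein-DNA and 100nM Texas-615-DNA. Fluorescence polarization was read for both dyes.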
Starred values were filed as active, the others as inactive; i = inactive; ? = inconclusive; / = not tested or not shown; & = joins results of further samples; [ ] = another dose, or the depositor's remark. Unless noted, the call rests on the fitted dose curve; in most records, active means well fitted curve in the direction sought with a large enough effect; inconclusive means small, poorly fitted or top-dose-only effect, or another doubt; inactive means no such curve, though single readings can be large; an effect the other way counts as inactive or inconclusive. Not all compounds are listed; rates above refer to the full screens.

SMILES	RGS4 inhibitor	PI4K2A block	GLS inh	12-LOX inh	ERG-DNA inh
COc1ccccc1N1CCN(Cc2ccc(OC)c3ccccc23)CC1	13%	2	0%	?	2%
N#CC(c1ccccn1)(c1ncc(C(F)(F)F)cc1Cl)N1CCOCC1 (centres undefined)	13%	8	-9%	-3%	-4%
O=C(O)c1ccccc1NSc1ccccc1[N+](=O)[O-]	-17%	1	-23%	?	-2%
COc1ccc(S(=O)(=O)C(C#N)c2nc3ccccc3nc2N2CCCCC2)cc1 (centres undefined)	11%	4	3%	?	0%
COc1ccc(NS(=O)(=O)c2cccc(C(=O)NNC(=O)c3cccn3C)c2)cc1	-3%	-22	5%	0%	1%
CC(C)CC(C(=O)NCc1ccc(F)cc1)N1Cc2ccccc2C1=O (centres undefined)	-4%	1	9%	0%	-1%
CCOc1ccc(/C=C/c2nc(C#N)c(N3CCN(c4ccccc4)CC3)o2)cc1	-1%	6	7%	-4%	3%
CC(C)OC(=O)CSc1nnc(-c2ccccn2)n1C	5%	3	-2%	?	1%
COC(=O)/C(NC(C)=O)=C(\C)c1ccc(Cl)cc1	-21%	-3	-8%	0%	-9%
Nc1ccc(C(=O)OC2CCOC2=O)cc1[N+](=O)[O-] (centres undefined)	14%	1	6%	-38%	-8%
CC1=C(C(=O)Nc2ccccc2)C(c2cccnc2)n2ncnc2N1 (centres undefined)	17%	-5	21%	-10%	10%
CCN1CCCC1CNC(=O)c1ccc2c(c1)NC(=O)/C(=C\c1ccc(C)cc1)S2 (centres undefined)	-6%	-2	10%	?	22%

Part of the list above, reduced to PI4K2A block, 12-LOX inh and ERG-DNA inh:
canonical_smiles,PI4K2A block,12-LOX inh,ERG-DNA inh
CC1=C(C(=O)Nc2ccccc2)C(c2cccnc2)n2ncnc2N1 (centres undefined),-5,-10%,10%
Nc1ccc(C(=O)OC2CCOC2=O)cc1[N+](=O)[O-] (centres undefined),1,-38%,-8%
N#CC(c1ccccn1)(c1ncc(C(F)(F)F)cc1Cl)N1CCOCC1 (centres undefined),8,-3%,-4%
COc1ccc(NS(=O)(=O)c2cccc(C(=O)NNC(=O)c3cccn3C)c2)cc1,-22,0%,1%
CCN1CCCC1CNC(=O)c1ccc2c(c1)NC(=O)/C(=C\c1ccc(C)cc1)S2 (centres undefined),-2,?,22%

Next section.
SMILES	RGS4 inhibitor	PI4K2A block	GLS inh	12-LOX inh	ERG-DNA inh
CS(=O)(=O)N(CC(=O)NCC1CCCO1)c1cc(Cl)ccc1Cl (centres undefined)	24%	0	14%	152%[activator]	-2%
COc1ccc(Cl)cc1NC(=O)CN(C)C(=O)c1cc(-c2ccncc2)nc2ccccc12	-8%	1	-4%	-5%	7%
COc1cc(OC)cc(C(=O)NC(=S)NNC(=O)c2cnccn2)c1	?	-3	43%[activator]	50µM*	9%
COc1ccccc1N1C(=O)C2C(C(=O)c3ccccc3)=NN(c3ccc(C)cc3)C2C1=O (centres undefined)	-5%	16	0%	7%	1%
CN1C(=O)CC(C(=O)O)SC1=Nc1cc(Cl)c(O)c(Cl)c1 (centres undefined)	-43%	-4	/	-30%	1%
CCOC(=O)c1ccc(NC(=O)c2oc3c(c2C)-c2nn(Cc4ccccc4Cl)cc2CC3)cc1	17%	-8	-13%	0%	1%
Cc1ccc(C)c(S(=O)(=O)C(C#N)c2nc3ccccc3nc2N2CC(C)OC(C)C2)c1 (centres undefined)	-6%	-5	28%	?	-15%
CCc1ccc(CNC(=O)Cc2ccc(NC(=O)C3=C(C)OCCS3)cc2)cc1	-24%	-3	23%	53%	-9%
O=C(/C=C/NNC(=O)c1cccc(Br)c1)c1cccc(Br)c1	-28%	-1	0%	?	/
COc1cccc(CNCc2cc(OC)cc(OC)c2)c1	19%	-2	12%	-26%	6%
O=C(C1CCCN(Cc2cccs2)C1)N1CCCCCC1 (centres undefined)	-14%	-3	-5%	-17%	-3%
O=c1cc(O)nc(SCc2ccccc2Cl)[nH]1	-2%	-5	1%	26%	-5%
CN(C)/C=C(\C#N)C(=O)N/N=C(\CC(=O)C(F)(F)F)c1ccco1	5%	3	-1%	11%	6%
CC(=O)C1=C(O)C(=O)N(CCC(=O)O)C1c1ccc(Cl)cc1Cl (centres undefined)	1%	0	19%	?	/
COc1cc(CNc2ccc(C)c(C)c2)cc(OC)c1OC	16%	5	-2%	/	-5%
O=C(COc1cccnc1[N+](=O)[O-])Nc1ncc(Cl)cc1Cl	-54%	-17	?	?	14%
CCCCCSc1nnc2c(n1)[nH]c1c(C)cccc12	-16%	-3	7%	-12%	-3%
CC(=O)c1ccc(OCCCC(=O)N2CCN(S(=O)(=O)c3ccc(C(C)C)cc3)CC2)cc1	-30%	-1	-1%	-8%	3%
CCCCCCC1NC(C(=O)O)CS1 (centres undefined)	-15%	-2	-14%	?	4%
CCOc1ccc2c(c1)-c1c(ssc1=S)C(C)(C)N2C(=O)CSC1=NCCS1	-8%	-2	-1%	?	-10%
COCCCn1c(SCC(=O)N(C)C)nnc1-c1ccccc1	-5%	-3	-14%	0%	0%
CCc1nnc(NC(=O)c2cccc(S(=O)(=O)N3CCN(C(C)=O)CC3)c2)s1	-13%	6	0%	?	1%
CC1(C)Cc2ccccc2C(/C(=N/O)C(N)=O)=N1	-8%	3	16%	-15%	4%
CCCC(=O)Nc1ccc(OCC(O)CNC(C)C)c(C(C)=O)c1 (centres undefined)	18%	2&2	-2%	-11%	11%
COc1ccc(CN2CCCCCC2)c(C)c1C	-5%	0	7%	-19%	-5%
Cc1ccc(CN2C(=O)N/C(=C/c3ccc(-c4ccc(C(=O)O)cc4)o3)C2=O)cc1	-19%[11.4 µM]	0	?	?	11%
COc1cccc(Nc2sc(C(=O)c3ccc(F)cc3)c(N)c2C(=O)NCc2ccc(C)cc2)c1	-9%	-2	-1%	?	1%
COc1ccc(C(=O)Nc2cc3c(oc2=O)CCCC3=O)cc1	3%	-10	?	-9%	9%
CC(C)(CO)Cc1cc(C(C)(C)C)c(O)c(C(C)(C)C)c1	?	0&7	-1%	?	-10%
CCOC(=O)c1ccc(NC(=O)C(CC)(CC)C(=O)OCC)cc1	49%	-1	-11%	-11%	2%
CC(=O)N1CCN(S(=O)(=O)c2cccc(C(=O)Nc3ccc4c(c3)OCO4)c2)CC1	-10%	-3	-10%	0%	-1%
COc1cccc(CC2(CO)CCCN(Cc3ccccc3Cl)C2)c1 (centres undefined)	-12%	0	2%	/	9%
Cc1c(N=C/C=C/c2ccccc2)c(=O)n(-c2ccccc2)n1C	-23%	5	16%	-21%	-5%
Cc1ccc(C)c(S(=O)(=O)C(C#N)c2nc3ccccc3nc2N2CCOCC2)c1 (centres undefined)	1%	0	56%[activator]	-22%	-15%
COc1cccc(CN2CCCC(C(=O)N3CCCCC3)C2)c1OC (centres undefined)	-21%	4	/	-5%	7%
CCOc1ccc(NC(=O)CSc2nnc(-c3ccccn3)n2N)cc1	-26%	-2	-1%	0%	-7%

Pulled one by one from the list above, five records:
SMILES	RGS4 inhibitor	PI4K2A block	GLS inh	12-LOX inh	ERG-DNA inh
CCc1ccc(CNC(=O)Cc2ccc(NC(=O)C3=C(C)OCCS3)cc2)cc1	-24%	-3	23%	53%	-9%
COc1ccc(CN2CCCCCC2)c(C)c1C	-5%	0	7%	-19%	-5%
Cc1ccc(C)c(S(=O)(=O)C(C#N)c2nc3ccccc3nc2N2CC(C)OC(C)C2)c1 (centres undefined)	-6%	-5	28%	?	-15%
CC(C)OC(=O)CSc1nnc(-c2ccccn2)n1C	5%	3	-2%	?	1%
COc1ccccc1N1CCN(Cc2ccc(OC)c3ccccc23)CC1	13%	2	0%	?	2%

The list continues.
SMILES	RGS4 inhibitor	PI4K2A block	GLS inh	12-LOX inh	ERG-DNA inh
COc1ccccc1N1CCN(CCCCOc2ccc(C)cc2C)CC1	-2%	9	4%	?	17%
COC(=O)c1cccc(NC(=O)c2cccnc2C(=O)O)c1C	-6%	-9	1%	-15%	-5%
CCN(CC(=O)Nc1ccc(NC(C)=O)cc1)CC(=O)Nc1cccc(Cl)c1	18%	3	-1%	i	4%
Cc1ccc(C(C)(C)C)c(OCCOCCN2CCCC2)c1	-28%	3	-1%	-25%	-3%
CCC(Cn1nnc2ccccc2c1=O)NC(=O)Nc1ccccc1Cl (centres undefined)	6%	0	-25%	-17%&-9%	7%
COc1ccc(NC(=O)CN2CCN(CC(=O)Nc3ccc(F)cc3)CC2)cc1Cl	4%	2	11%	-15%	-3%
COc1cccc(N2C(=O)C3CCCN3C2=S)c1 (centres undefined)	-40%[56.9 µM]	-19	-11%	?	4%
CCc1nc2oc3ccccc3c(=O)c2c(=O)n1-c1ccc(C)cc1	-23%	-2	7%	?	19%
CCOc1ccc(C2C(C(=O)Nc3ccccc3C)=C(C)Nc3nnnn32)cc1 (centres undefined)	1%	2	6%	-19%	-5%
O=C(CSCc1ccccc1Br)N/N=C/c1ccc(OCC(=O)N2CCCCC2)cc1	6%	7	2%	-1%	0%
O=C(O)c1ccc2nc(-c3cc4cc(Cl)ccc4oc3=O)[nH]c2c1	9%	-4	-14%	-30%	4%
O=c1c(NCCc2ccccc2)c(-c2ccccc2)c1=O	-22%[56.9 µM]	5	-8%	-1%	-1%
CC(=O)N/C(=C\c1ccccc1)C(=O)OC(C)C(=O)NCc1ccccc1 (centres undefined)	-42%	2	-8%	13%	-22%
COc1ccc(N(C(=O)c2ccccc2)S(=O)(=O)c2cccs2)cc1	?	2	?	11%	4%
CC(C)c1ccc(N=c2c([N+](=O)[O-])nn(-c3ccc4c(c3)OCCO4)n2O)cc1	-10%	-2	11µM*	-27%[57.4 µM]	/
COc1ccc(CN2CCCCC2C)c(C)c1C (centres undefined)	-6%	1	5%	-6%	-3%
O=[N+]([O-])c1cccc(CN2CCN(S(=O)(=O)Cc3ccccc3)CC2)c1	-33%	2	1%	?	-6%
COc1cccc2cc(C(=O)CS(=O)(=O)c3ccc(C(C)(C)C)cc3)c(=O)oc12	-30%	-15	4%	-13%	13%
Cc1cccc(CN2CCCC(C(=O)N3CCCCC3)C2)c1 (centres undefined)	-7%	-3	-3%	1%	-4%
CC1(C)N([O-])c2cc([N+](=O)[O-])ccc2[N+]1=O	-49%	?	-24%	68%[activator]	3%
COc1ccccc1NC(=O)C(C)OC(=O)/C(=C/c1ccccc1)NC(C)=O (centres undefined)	17%	0	11%	11%	/
